Assay outcomes: PubChem, several laboratories
MT1-MMP reporter – inhibitors of MT1-MMP promoter transcription, cell-based, luciferase reporter, luminescence (AID 618) | MT1-MMP promoter luciferase reporter cells, luminescence | calls from a first round at 10 µM; hits with a dose series show EC50 in µM | 87,000 compounds, 0.62% hits;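 active means over half of the reporter light lost at 10 µM or EC50 under 50 µM; inactive means the rest and hits that failed the dose series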;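 further: actives suppress MT1-MMP promoter-driven transcription so potencies describe inhibitors; HT1080 fibrosarcoma cells; overnight exposure; toxic or luciferase-blocking compounds were not removed from the actives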
WNV protease inh – blocks West Nile virus NS2B-NS3 protease activity | z-score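 (tested at a level between 10 and 100 µM)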 | 65,000 compounds, 0.18% hits | AID 577 | P06935 | WNV NS2B-NS3 protease, fluorogenic substrate Ex360/Em465; hits give low values;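 active means z-score at -3 or under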;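 further: score is relative to mean and spread of the compound wells of a plate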
Target sequence (P06935 1371-1501 limits assumed): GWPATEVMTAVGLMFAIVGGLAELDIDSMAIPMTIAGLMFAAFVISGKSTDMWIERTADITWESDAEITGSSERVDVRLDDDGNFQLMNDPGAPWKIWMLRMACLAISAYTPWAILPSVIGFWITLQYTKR
Target sequence (P06935 1502-1679 limits assumed): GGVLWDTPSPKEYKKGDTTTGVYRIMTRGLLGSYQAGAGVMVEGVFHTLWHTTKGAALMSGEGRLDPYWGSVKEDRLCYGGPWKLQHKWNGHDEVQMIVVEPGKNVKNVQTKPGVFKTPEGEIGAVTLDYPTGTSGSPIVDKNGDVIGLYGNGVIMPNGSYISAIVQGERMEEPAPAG
Hsc70 ATP site – Hsc70 inhibitors, probe displacement, primary screen, biochemical, fluorescence polarization (AID 568); Hsc70 fluorescence polarization, probe displacement; higher % means a stronger effect; strong numbers were not always called active; one-dose displacement, % at 20 µM; IC50 in µM for titrated hits; 83,000 tested, under 10 active;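 active means displacement above 50% without optical interference and an IC50 on retest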;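 further: ATPase domain with a fluorescein-tagged ATP probe; 0% = vehicle and 100% = excess ADP; read after one hour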
* = called active by the depositor; i = inactive; / = no result given.

cpd	mol	MT1-MMP reporter	Hsc70 ATP site	WNV protease inh
1	COc1ccc(OC)c(NC(=O)c2c(NC(=O)c3ccco3)sc3c2CCC3)c1	i	-4.2%	-0.41
2	COc1ccc(-n2c(Cc3cccn3C)nnc2SCC(=O)Nc2cccc(OC)c2)cc1	i	1.0%	-0.55
3	Cc1ccc(C(=O)Nc2nc3ccccc3s2)s1	i	-7.7%	0.45
4	Cc1ccc(N2C(=O)c3ccc(C(=O)NCCN4CCOCC4)cc3C2=O)cc1	i	-2.8%	0.13
5	CC1=C(c2ccc(C)cc2)S(=O)(=O)N(CC(=O)O)C1=O	i	-2.5%	-0.1
6	Cc1ccc(N(CCC#N)C(=O)CSc2ccc3c(c2)OCCO3)cc1	i	3.6%	/
7	COc1c(Cl)cc(Cl)cc1C(=O)Nc1ccccc1N1CCN(C(C)=O)CC1	i	6.3%	0.19
8	Cn1c(-c2ccc3c(c2)OCO3)cnc1NCc1cccc(Cl)c1	i	-4.6%	1.2
9	Cc1ccc(NC2=NC(c3ccccc3)n3c(nc(C)cc3=O)N2)c(C)c1 (centres undefined)	i	-0.3%	/
10	COc1ccc(-c2cc(CCCC(=O)NCCc3cc(OC)ccc3OC)no2)cc1	i	-3.1%	0.4
11	CCOC(=O)N1CCN(C(=O)CCc2c(C)nc3nc(C)nn3c2C)CC1	i	11%	0.14
12	CCOc1ccc(CN2CCN(S(=O)(=O)c3ccc(NC(C)=O)cc3)CC2)cc1OC	i	4.1%	-0.82
13	Cc1c(NC(=O)c2ccc(F)cc2)c(=O)n(-c2ccccc2)n1C	i	5.7%	0.25
14	Cc1ccc(NC(=O)CCn2c(=O)oc3ccccc32)cc1	i	-0.6%	-0.26
15	CC1CCc2nn(CC(=O)NCCC3=CCCCC3)cc2C1 (centres undefined)	i	4.0%	-0.09
16	O=S(=O)(NCc1ccc2c(c1)OCO2)c1cccc2cccnc12	i	2.0%	0.69
17	COc1ccc(Br)cc1S(=O)(=O)N1CCOCC1	i	1.5%	-0.87
18	O=C(COC(=O)c1ccc2c(c1)OCO2)NC1CCS(=O)(=O)C1 (centres undefined)	i	-4.2%	-0.07
19	c1cn2c(NC3CCCC3)c(-c3ccc(N4CCOCC4)cc3)nc2cn1	i	1.0%	-0.39
20	COc1ccc(OCC(=O)Nc2ncc3c(n2)CC(C)(C)CC3=O)cc1	i	5.3%	-0.9
21	FC(F)(F)c1cccc(N2CCN(CC3CC=CCC3)CC2)c1 (centres undefined)	i	-0.9%	/
22	O=C(O)c1cc(-c2ccco2)nc2ccccc12	i	1.7%	2.6
23	CC(NCCC(c1ccccc1)c1ccccc1)c1ccccc1 (centres undefined)	i	-0.9%	0.88
24	CS(=O)(=O)N(CC(=O)NC1CCCCC1)c1cccc(Cl)c1	i	3.1%	-0.65
25	O=C(CN1C(=O)c2ccccc2C1=O)Nc1cccc2cccnc12	i	-0.1%	0.11
26	Cc1nn(C)c(C)c1NC(=O)CSc1nc(-c2ccccc2F)nc2c1cnn2-c1ccccc1	i	-1.5%	-0.0029
27	CCS(=O)(=O)N1CCN(C2CCC(C)CC2)CC1 (centres undefined)	i	-3.1%	-0.09
28	O=C(Nc1ccc(Cl)cc1)N1CCCN(Cc2ccc(F)cc2)C1	i	-2.3%	/
29	O=C(CN1C(=O)CCC1=O)Nc1nc(-c2cccs2)cs1	i	2.7%	-0.56
30	Cc1[nH]c2ccccc2c1CN1CCc2ccccc2C1	i	-5.2%	/
31	Cc1sc2ncnc(SCC(=O)c3cccs3)c2c1C	i	-5.3%	-1.2
32	O=C(Nc1ccc2c(c1)OCO2)C1CCCCN1S(=O)(=O)c1ccccc1 (centres undefined)	i	0.5%	/
33	COc1ccc(-c2coc3cc(O)ccc3c2=O)cc1OC	i	-8.8%	0.11
34	COc1nc2ccccc2c(=O)n1OCC(C)C	i	-0.7%	-0.56
35	Cn1c(SCC(=O)Nc2nccs2)nnc1-c1ccco1	i	2.3%	/
36	Cc1oc2cc3c(C(=O)OCCN(C)C)c(C)oc3cc2c1C(=O)OCCN(C)C	/	4.2%	-0.45
37	COc1ccccc1CN1CC(C(=O)NC2CCCCC2)CC1=O (centres undefined)	i	8.2%	-0.07
38	COc1ccc(Cl)cc1NC(=O)N(C)Cc1c(C)nn(C)c1C	i	-0.3%	0.21
39	CC(=O)c1sc(NC(=O)c2cc3c(C)nn(-c4ccccc4)c3s2)nc1C	i	2.5%	/
40	Cc1ccc(C)c(NS(=O)(=O)c2ccc(OCC(=O)NCc3ccco3)cc2)c1	i	-2.7%	-0.37
41	O=C(c1oc(=O)c2ccccc2c1-c1ccccc1)N1CCC(O)CC1	i	6.6%	0.15
42	Cc1cc(C(=O)NC(C)C2CCCO2)cs1 (centres undefined)	i	12%	0.67
43	COc1ccc2c(c1OC)C(=O)N1C(C(=O)O)Cc3c([nH]c4ccccc34)C21 (centres undefined)	i	11%	1.4
44	Cc1ccc2c(SCC(=O)NCc3ccco3)nc(-c3ccc(F)cc3)nc2c1	i	-9.0%	-0.1
45	Cc1[nH]c(=O)[nH]c(=O)c1S(=O)(=O)N1c2ccc(F)cc2CCC1C (centres undefined)	i	-3.0%	-0.46
46	O=C(O)c1cccc(S(=O)(=O)Nc2ccc3c(c2)OCO3)c1	i	3.7%	1.7
47	O=c1cc(CO)oc(C(Nc2ccccn2)c2ccsc2)c1O (centres undefined)	i	-4.0%	2.2
48	Cc1cccc(N2CCN(C(=O)C3CCN(c4nnc(-n5cccc5)s4)CC3)CC2C)c1 (centres undefined)	i	5.1%	-0.4
49	Cc1ccc(S(=O)(=O)N2CCCC(C(=O)NCc3cccnc3)C2)cc1Cl (centres undefined)	i	-1.7%	0.95
50	N#Cc1nc(COc2ccccc2)oc1N1CCC(Cc2ccccc2)CC1	i	-7.7%	-0.23

An excerpt of these results, with two lines to a compound:
Screens in order: MT1-MMP reporter, Hsc70 ATP site, WNV protease inh
#43 COc1ccc2c(c1OC)C(=O)N1C(C(=O)O)Cc3c([nH]c4ccccc34)C21 (centres undefined)
→ i, 11%, 1.4
#44 Cc1ccc2c(SCC(=O)NCc3ccco3)nc(-c3ccc(F)cc3)nc2c1
→ i, -9.0%, -0.1
#45 Cc1[nH]c(=O)[nH]c(=O)c1S(=O)(=O)N1c2ccc(F)cc2CCC1C (centres undefined)
→ i, -3.0%, -0.46

Part of the list above in order of SMILES length, smallest number first.
cpd	mol	MT1-MMP reporter	Hsc70 ATP site	WNV protease inh
31	Cc1sc2ncnc(SCC(=O)c3cccs3)c2c1C	i	-5.3%	-1.2
27	CCS(=O)(=O)N1CCN(C2CCC(C)CC2)CC1 (centres undefined)	i	-3.1%	-0.09
47	O=c1cc(CO)oc(C(Nc2ccccn2)c2ccsc2)c1O (centres undefined)	i	-4.0%	2.2
29	O=C(CN1C(=O)CCC1=O)Nc1nc(-c2cccs2)cs1	i	2.7%	-0.56
32	O=C(Nc1ccc2c(c1)OCO2)C1CCCCN1S(=O)(=O)c1ccccc1 (centres undefined)	i	0.5%	/

New compounds follow.
cpd	mol	MT1-MMP reporter	Hsc70 ATP site	WNV protease inh
51	COc1ccc(-n2c(SCC(N)=O)nc3sc4c(c3c2=O)CCN(C)C4)cc1	i	-1.3%	0.2
52	COc1ccc(OC)c(NC(=O)Cn2cc(C#N)c3cc(Br)ccc32)c1	i	0.5%	-0.69
53	Cc1ccccc1NC(=O)C1Cc2ccccc2C(=O)O1 (centres undefined)	i	-0.5%	0.07
54	CCN(CC)c1ccc(-n2cc3c(=O)n(C)c(=O)n(C)c3c2)cc1	i	-0.1%	-1.4
55	CN1C(=O)c2ccc(S(=O)(=O)c3ccc(C(=O)O)cc3)cc2C1=O	i	3.0%	1.3
56	CC(=O)Nc1ccc(S(=O)(=O)NCCN2CCOCC2)cc1	i	-4.5%	-1.1
57	Cc1nc(SCC(=O)NCCc2ccccc2)n[nH]1	i	3.8%	-0.41
58	CC(C)=CCC/C(C)=C/CC/C(C)=N/O	i	-2.6%	0.95
59	OCCn1c(Cl)nc2ccccc21	i	2.3%	/
60	COC(=O)c1c(C)nc2ccccc2c1C(=O)O	i	2.3%	-1.4
61	O=C(COc1cccc2cccnc12)NCC(F)(F)F	i	12%	-0.19
62	Cc1cccc(N(C(=O)CCC(=O)Nc2ccccn2)C(C(=O)NC(C)C)c2ccc(O)cc2)c1 (centres undefined)	i	-6.6%	0.32
63	C/C(N)=C(/C#N)C(=O)COC(=O)c1cc(S(=O)(=O)N2CCCCC2)ccc1C	i	-2.0%	1.1
64	Cc1cccc2cc(CN(CC3CCCO3)C(=O)NC3CCCCC3)c(=O)[nH]c12 (centres undefined)	i	-0.8%	-0.56
65	CCOC(=O)CC(=O)Nc1c(C)cc(C)cc1C	i	0.7%	1.3
66	O=C1NCCCC2c3cc(O)c4ccccc4c3OC12N1CCCCC1 (centres undefined)	i	17%	0.26
67	CCC1CC(CSc2ncn[nH]2)OC1=O (centres undefined)	i	-1.1%	/
68	O=C(Cn1nnc(-c2ccccc2NC(=O)c2ccccc2F)n1)NCc1ccco1	i	1.5%	0.86
69	O=C(Nc1nnc(C2CCCO2)s1)c1cccs1 (centres undefined)	i	-3.2%	-0.88
70	C=CCOc1nc2c(c(=O)n(C)c(=O)n2C)n1C	i	2.0%	-0.98
71	CCCCn1c(CNC(=O)CC)nc2ccccc21	i	2.8%	-0.23
72	CN1CCN(C2=Nc3ccccc3Oc3ccc(Cl)cc32)CC1	i	3.9%	-0.59
73	COCC(=O)Nc1sc2c(c1C(=O)OC)CCCC2	i	-16%	1.1
74	N#CCc1ccc(NC(=O)Nc2cccc(Cl)c2)cc1	i	-1.7%	0.92
75	O=C(CN1C(=O)CSc2ccccc21)NCCC1=CCCCC1	i	-8.9%	0.34
76	c1ccc(-c2cc3c(nn2)CCc2nonc2-3)cc1	i	-4.0%	0.26
77	O/N=C1\CC/C(=N\O)c2nn(-c3ccccc3Cl)nc21	i	1.4%	0.2
78	O=C(CCSc1ccccc1)N1CCOCC1	i	3.0%	-1.2
79	Cc1cc(NS(=O)(=O)c2ccc(NC(=O)c3ccco3)cc2)nc(C)n1	i	1.3%	/
80	COc1ccc(CN(CC(=O)NCC2CCCO2)C(=O)CNS(=O)(=O)c2ccc(C)cc2)cc1 (centres undefined)	i	2.7%	-0.43
81	CCOc1ccccc1N(CC(=O)OC)S(C)(=O)=O	i	-3.3%	-0.32
82	CCc1ccc(C(=O)NC2CCCCC2)s1	i	6.8%	-0.23
83	O=C(CC1SC2=NCCN2C1=O)Nc1ccccc1 (centres undefined)	i	30%	0.71
84	CCOC(=O)c1ccc(CNC(=O)c2cc3cccc(OC)c3oc2=O)o1	i	-5.0%	0.43
85	CC(C)NC(=O)N(O)C1N(Cc2ccc3c(c2)OCO3)C(=S)SC1(C)C (centres undefined)	i	-0.7%	-0.89
86	Cc1ccccc1S(=O)(=O)Cc1ccc(C(=O)N2CC(C)CC(C)C2)o1 (centres undefined)	i	2.8%	-0.48
87	C(=C\c1ccccc1)/CSc1nnc(-c2ccccc2)n1Cc1ccco1	i	9.3%	/
88	CN(C)S(=O)(=O)c1ccc(NC(=O)c2cc(F)c(F)cc2Cl)cc1	i	7.1%	/
89	CC(=O)Nc1ccc(Cl)c(C(N)=O)c1	i	2.9%	-0.07
90	CC(C)CNC(=O)c1cccc(NC(=O)c2ccc(NC(=O)c3ccco3)cc2)c1	i	-3.7%	0.96
91	COc1cccc(-n2nnnc2SCC(=O)c2ccc(NC(C)=O)cc2)c1	i	2.3%	1.2
92	CCN(CC)CC(=O)N1c2ccccc2Sc2ccc(Cl)cc21	i	2.4%	/
93	Cc1noc(C)c1S(=O)(=O)N(CC(=O)N1CCc2ccccc21)c1ccc(C(C)C)cc1	i	5.4%	-0.09
94	COc1ccc(Br)cc1S(=O)(=O)N(CC(=O)N1CCOCC1)c1ccccc1	i	7.0%	-0.97
95	Cc1nn(Cc2ccc(C(=O)Nc3ccc(C(=O)OC(C)C)cc3)o2)c(C)c1Cl	i	2.2%	-0.8
96	Cc1nn(-c2nc3ccccc3s2)c(N)c1-c1ccc(Cl)cc1	i	1.3%	-0.86
97	CC1(C)Cc2c(sc3c2c(=N)n(Cc2ccco2)c(=O)n3CC(=O)Nc2ccccc2)CO1	i	-5.1%	-0.32
98	CC1CN(C(=O)CN2C(=O)c3ccccc3S2(=O)=O)CC(C)O1 (centres undefined)	i	-0.3%	-0.88
99	CCCCNC(=O)N1CCOCCOCCN(C(=O)NCCCC)CCOCCOCC1	i	4.3%	-0.3
100	COc1ccc(NC(=O)CN2CCN(C3c4ccccc4-c4ccccc43)CC2)cc1	i	1.7%	/

Remaining list, next part
cpd	mol	MT1-MMP reporter	Hsc70 ATP site	WNV protease inh
101	O=C(CNC(=O)c1ccco1)Nc1cc(Cl)ccc1N1CCOCC1	i	11%	0.14
102	O=C(CSc1ncnc2sc3c(c12)CCCCC3)NCc1ccco1	i	-1.6%	0.21
103	O=C(CSc1ncnc2c1cnn2-c1ccccc1)Nc1ccccc1	i	0.7%	-0.74
104	CCn1c(Cc2ccccc2)nnc1SCC(=O)NC1CC1	i	-0.4%	/
105	COC(=O)c1ccc(NC(=O)CN2CCCC2)cc1	i	-1.8%	0.77
106	O=C(c1cnc2n(c1=O)CCS2)N1CCN(C(c2ccccc2)c2ccc(Cl)cc2)CC1 (centres undefined)	i	-2.5%	0.38
107	Clc1ccc(Cn2nnc(-c3ccc(CN4CCOCC4)cc3)n2)cc1	i	-5.3%	-2.4
108	Cc1ccc(C2NC(=O)c3c(sc4c3CCN(C)C4)N2)o1 (centres undefined)	i	8.9%	-0.48
